Compound activity (PubChem BioAssay)
TRPML1 ag – qHTS for Agonists of the Human Mucolipin Transient Receptor Potential 1 (TRPML1); Mucolipin-1 (Homo sapiens), Q9GZU1; TRPML1-expressing cells, Ca2+ dye fluorescence, FDSS; host cell line not named in the record; reference of the full effect not given here; activation, % (no concentration beside the values); 410,000 compounds, 0.12% hits; AID 624414, 2012; in the data active = activation above about 50%; inconclusive = about 30% to 50%; inactive = below about 30%; further: 0% is about no effect; the text of the record puts the active cut at 80%
Target sequence (Q9GZU1 whole entry, looked up): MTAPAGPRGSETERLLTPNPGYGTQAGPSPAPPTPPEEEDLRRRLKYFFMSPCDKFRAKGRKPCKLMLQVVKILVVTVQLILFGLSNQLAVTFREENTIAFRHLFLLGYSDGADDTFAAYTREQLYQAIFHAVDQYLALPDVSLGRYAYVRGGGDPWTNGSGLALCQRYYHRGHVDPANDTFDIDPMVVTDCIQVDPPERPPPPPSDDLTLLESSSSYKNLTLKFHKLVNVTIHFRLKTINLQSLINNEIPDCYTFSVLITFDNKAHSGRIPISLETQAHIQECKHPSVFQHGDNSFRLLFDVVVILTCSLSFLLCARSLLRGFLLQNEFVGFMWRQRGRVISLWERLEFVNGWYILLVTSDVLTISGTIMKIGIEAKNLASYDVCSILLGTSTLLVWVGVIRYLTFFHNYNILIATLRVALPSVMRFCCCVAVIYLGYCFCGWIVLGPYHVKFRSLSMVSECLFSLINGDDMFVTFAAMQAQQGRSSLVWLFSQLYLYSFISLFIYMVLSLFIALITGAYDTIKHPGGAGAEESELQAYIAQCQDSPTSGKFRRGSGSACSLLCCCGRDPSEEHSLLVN
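Tet-induced TRPML1-DL cells, 1,500 per well, cultured overnight, were loaded with a no-wash Ca2+ dye for 45–90 min. Calcium fluorescence was recorded on the FDSS for 110 s after compound addition, before the EC80 agonist (4 uM 54-4) was added.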
CtBP-E1A blk – qHTS Assay for Inhibitors of the CtBP/E1A Interaction; 340,000 compounds, 0.49% hits; activity change, % (concentration not given with the values); CtBP / adenovirus E1A interaction (AlphaScreen); AlphaScreen GST-E1A/His-CtBP binding, 1536-well; stronger effect = lower value; control for the full effect not named in the record; in the data active means activity change below about -65%; inconclusive means about -30% to -65%; inactive means above about -30%; further: on the % scale 0 is the no-effect control and ±100 the full control effect
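AlphaScreen with 125 nM GST-E1A and 125 nM His-CtBP (5X stocks) in Tris pH 8.0, 300 mM NaCl, BSA, Tween 20, TCEP. Compounds preincubated 2 h at 37 deg C, then glutathione donor/nickel acceptor beads added for 1 h at 37 deg C in dark.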
PINK1 expr mod – A Quantitative High throughput Screen to Identify Chemical Modulators of PINK1 Expression | PINK1 immunofluorescence, high-content cytometry, 24 h | Potency, µM (titrated, usually from 76.6 µM), without a hit: at the highest dose activation (PINK1 increase), most hits filed as activators | 410,000 compounds, 0.2% hits | AID 624263, 2012; active = well fitted activation curve with a large enough effect; inconclusive = small, poorly fitted or top-dose-only effect; inactive = flat fitted curve, though single readings scatter; cell line not stated here;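 further: potency means the concentration at half of the fitted maximal effect; % of control where 0% means no effect; nearly all actives have a fitted effect of over 65% in size; a mitochondrial uncoupler was the plate control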
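Stable cell line treated 24 h with compounds at 5 concentrations (CCCP controls), then fixed and immunostained for PINK1 plus nuclear and cell stains; PINK1 immunofluorescence quantified by laser-scanning microplate cytometry.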
D2 ag – Beta-Arrestin HTS for Positive Allosteric Modulators of the Human D2 Dopamine Receptor: Agonists. DiscoveRx PathHunter D2 beta-arrestin, luminescence, 90 min; 100% = 57 uM dopamine signal. activation, % (no concentration beside the values). 360,000 compounds, 0.084% hits; in the data active = activation above about 40%; inconclusive = about 15% to 40%; inactive = below about 15%; further: compound concentration not given in the record; the text of the record calls up to 30% inactive
Target sequence (P14416 whole entry, looked up): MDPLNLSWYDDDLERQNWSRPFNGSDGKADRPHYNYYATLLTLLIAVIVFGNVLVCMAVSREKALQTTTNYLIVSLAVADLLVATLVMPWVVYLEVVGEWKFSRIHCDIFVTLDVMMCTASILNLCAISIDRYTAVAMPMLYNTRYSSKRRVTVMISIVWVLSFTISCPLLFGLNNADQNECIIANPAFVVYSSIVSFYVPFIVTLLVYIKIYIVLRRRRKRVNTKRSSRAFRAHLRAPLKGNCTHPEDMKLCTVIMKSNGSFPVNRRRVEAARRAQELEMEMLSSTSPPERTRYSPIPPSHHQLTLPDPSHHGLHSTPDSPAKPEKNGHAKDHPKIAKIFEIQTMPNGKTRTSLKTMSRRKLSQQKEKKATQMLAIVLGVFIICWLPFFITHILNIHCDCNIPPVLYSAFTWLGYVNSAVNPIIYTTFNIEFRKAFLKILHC
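Agonist mode: compounds alone added to overnight-plated D2 PathHunter cells for 90 min at 37 C, with 57 uM final dopamine (EC100) defining full response. Beta-arrestin recruitment detected by chemiluminescent reagent, read after 1 h at ambient temperature.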
Six1-Eya2 blk – qHTS Assay for Inhibitors of the Six1/Eya2 Interaction. Homeobox protein SIX1 (Homo sapiens) + Protein phosphatase EYA2 (Homo sapiens), …. AlphaScreen GST-Six1/His-Eya2 binding, biochemical; stronger effect = lower value; control for the full effect not named in the record. activity change, % (no concentration beside the values). 360,000 compounds, 0.56% hits; in the data active = activity change below about -65%; inconclusive = about -30% to -65%; inactive = above about -30%; further: on the % scale 0 is the no-effect control and ±100 the full control effect
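AlphaScreen luminescence read after one hour at 37 °C in darkness. Pin-transferred compounds met GST-Six1 and His-Eya2 protein (5X stock 250 nM/500 nM) plus glutathione donor and Ni-chelate acceptor beads (5X, 50 ug/mL).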
D2 PAM – Beta-Arrestin HTS for Positive Allosteric Modulators of the Human D2 Dopamine Receptor: Potentiators. D(2) dopamine receptor (Homo sapiens), P14416. DiscoveRx D2 beta-arrestin cells, luminescence, 90 min; 100% = 57 uM dopamine signal. potentiation, % (concentration not given with the values). 360,000 compounds, 0.23% hits. AID 624464, 2012; active = potentiation of 50% or more; inconclusive = 30% to 50%; inactive = 30% or less;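 further: tested on top of an EC20 dose of dopamine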
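D2 cells co-treated with compound plus 50 nM dopamine (EC20) for 90 min at 37 deg C to detect potentiation. Beta-arrestin recruitment was read as enzyme-fragment luminescence after 1 h at ambient temperature. Full response was set by 57 uM dopamine.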
The depositor's hits bear a star; ? = inconclusive; nt = not tested or not shown; [ ] = another dose, or the depositor's remark.

SMILES	TRPML1 ag	CtBP-E1A blk	PINK1 expr mod	D2 ag	Six1-Eya2 blk	D2 PAM
COCCNC(=O)C(c1cccs1)N(C(=O)Cn1nnc2ccccc21)c1cccc(C(C)=O)c1 (stereo not drawn)	0.3	6	-0.8%	-2.5	3	-4
O=C(c1ccc(CNc2c(N3CCCC3)c(=O)c2=O)cc1)N1CC=C(c2ccccc2)CC1	0.2	-7	0.1%	-2.4	-13	-11
Cc1ccc2oc(C(=O)N3CCN(c4cccc(C)n4)CC3)c(C)c2c1	3.2	-1	1.5%	0.5	-8	-2
Cc1cc(-c2nnc(SCC(=O)Nc3ccc(C(F)(F)F)cc3)n2C)no1	1.3	nt	0.4%	9.1	0	10
COCC(C)NC(=O)COc1nncc2ccccc12 (stereo not drawn)	0.6	8	1.3%	4.5	-1	2
CN(C)Cc1csc(Nc2ccc(C(F)(F)F)cn2)n1	0.0	-2	2.2%	-4.8	4	-6
c1cncc(CNc2ccc3c(c2)OCO3)c1	0.7	-2	0.6%	0.6	-2	5
c1ccc(CNc2nc(N3CCN(Cc4ccccc4)CC3)nc3ccccc23)cc1	1.5	-16	-0.9%	0.2	-11	-20
COc1ccc(-n2cc(CNCCCn3ccnc3)c(-c3ccccc3Cl)n2)cc1	0.4	-9	4.9%	-3.4	-15	-8
C/C(N)=C(/C#N)C(=O)COC(=O)CC1CCCC1	0.4	18	4.4%	1.7	10	3

The last 2 compounds of the section before lead into the next:
SMILES	TRPML1 ag	CtBP-E1A blk	PINK1 expr mod	D2 ag	Six1-Eya2 blk	D2 PAM
COc1ccc(-n2cc(CNCCCn3ccnc3)c(-c3ccccc3Cl)n2)cc1	0.4	-9	4.9%	-3.4	-15	-8
C/C(N)=C(/C#N)C(=O)COC(=O)CC1CCCC1	0.4	18	4.4%	1.7	10	3
CCN(CC)C(=O)CSc1nnnn1-c1ccc(F)c(Cl)c1	2.3	nt	2.0%	-1.4	4	2
COc1ccc(-n2c(SCC(=O)Nc3ccccc3)nc3c(c2=O)SCC3)cc1	0.0	-5	0.0%	-1.6	-14	-6
COc1cc(/C=N/N2CCN(C3c4ccccc4-c4ccccc43)CC2)cc(OC)c1OC	1.5	-9	0.2%	-1.8	-16	-14
CN1OC[C@@H]2CN(C(=O)CCc3ccccc3)[C@H](c3ccc(-n4ccnc4)cc3)C[C@@H]21	-0.2	6	0.3%	-2.1	0	0
Cc1[nH]n(-c2ncc(-c3ccc(Cl)cc3)s2)c(=O)c1C(c1ccc(Cl)cc1)C(C#N)C#N (stereo not drawn)	0.0	-5	?	-3.2	-21	-6
Fc1ccccc1C(c1nnnn1Cc1ccc2c(c1)OCO2)N1CCN(Cc2ccco2)CC1 (stereo not drawn)	0.1	13	-1.0%	-6.0	-2	-29
Cc1ccc2cc(CCNC(=O)c3cccs3)c(=O)[nH]c2c1C	-0.6	-21	-0.9%	4.1	8	-5
CC12CN(C(=O)c3cccc([N+](=O)[O-])c3)C3(C#N)CC1CCC23C (stereo not drawn)	-1.0	nt	-1.9%	-5.4	0	4
CCCCC1=CC2=CC(=O)C(C)(OC(=O)CC)C(=O)C2=CN1CC(C)C (stereo not drawn)	-0.5	-4	2.9%	4.4	-17	4
CN(C)/C=C1\C=C(c2ccccc2)OC1=O	-0.6	1	-1.0%	0.3	3	0
COc1cc2cc(CN(Cc3cccs3)C(=S)Nc3ccccc3)c(=O)[nH]c2cc1OC	1.7	-7	0.5%	-3.1	-16	-5
CC(C)c1ccc(CNc2c([N+](=O)[O-])c(=O)oc3ccccc23)cc1	1.7	-8	0.8%	-3.5	-6	-4
CCC(C)NC(=O)c1ccc(C)c(NC(=O)C2=C(C)OCCS2)c1 (stereo not drawn)	0.9	2	-1.2%	-0.2	1	-5
O=C(O)C/C(=C\c1ccc(Cl)cc1)c1nc2ccccc2o1	0.1	nt	0.1%	1.3	5	-6
CCOC(=O)c1c(C)c(C(=O)N2CCN(c3ccccc3)CC2)c(C)n1C	-0.2	-8	-1.2%	-3.2	-13	-8
CCOc1oc(-c2ccc(OC)cc2)nc1C(F)(F)F	-0.1	13	-12%[38.3 µM]	-2.0	10	-4
O=C(CN1C(=O)NC2(CCCC2)C1=O)Nc1ccc(OC(F)(F)F)cc1	0.4	-9	1.7%	1.1	-18	0
CC(C)CC1NC(=O)C(CC(C)C)N(CO)C1=O (stereo not drawn)	0.7	2	1.7%	-1.8	8	-10
C=CCOC(=O)C1=C[C@H](c2coc3ccccc3c2=O)[C@@H](CCCO)[C@H](OCC)O1	-0.5	6	1.2%	6.3	2	23
NC(=S)N/N=C/c1ccccc1OC(=O)/C=C/c1ccccc1	-0.4	-93*	-0.5%	-2.1	?	-6
COc1ccc(S(=O)(=O)N2CC(C)N(C(=O)N3CCOCC3)C2)cc1 (stereo not drawn)	0.1	5	1.7%	-3.3	4	-1
CCCCCc1nnc(NS(C)(=O)=O)s1	0.7	6	0.1%	0.5	6	13
CN(C)C(=O)OCc1c(-c2ccccc2)ncc2ccccc12	1.4	-3	-0.4%	-2.8	1	-11
CCOC(=O)c1c(NC(=O)CN2C(=O)NC3(CCCC3)C2=O)sc(C)c1CC	0.8	-15	-3.2%	-7.1	-7	6
COC(=O)c1sccc1-c1ccc(C(=O)Nc2cccnc2)o1	-0.5	-28	-4.2%[38.3 µM]	-1.4	-20	-8
CCOc1ccc(N2C(=O)CC(NNc3nc4ccccc4s3)C2=O)cc1 (stereo not drawn)	0.2	-7	9.2%	4.8	6	2
CC(C)c1ccc(OCC(=O)Nc2ccccc2C(=O)N2CCOCC2)cc1	0.0	-2	0.4%	0.2	1	1
Cc1cc(CNC[C@H]2O[C@@H](n3cnc4c(N)ncnc43)[C@H](O)[C@@H]2O)no1	nt	7	-0.1%	1.7	-2	nt
CCOC(=O)C(C)n1cnc2c(nnn2-c2ccc(F)cc2)c1=O (stereo not drawn)	-0.4	2	1.1%	-3.5	2	0
COc1ccc(S(=O)(=O)N2CCC(C(=O)NCCOc3ccccc3F)CC2)cc1OC	2.3	-10	0.9%	1.6	1	-10
CN(c1cccc(F)c1)c1cc2c(c3c1ccn3C)C1CCC2O1 (stereo not drawn)	0.0	?	14%	-5.1	?	-2
COC(=O)C(NC(=O)COc1ccccc1)(Nc1nc2c(s1)CCCC2)C(F)(F)F (stereo not drawn)	1.8	-5	7.5%	-3.6	-4	-5
COc1cc(/C=N/N2CCN(c3ccccc3OC)CC2)ccc1OC(C)=O	1.2	-2	-0.5%	0.2	-17	-5
CS(=O)(=O)Nc1ccccc1C(=O)NCCSc1ccccc1	-0.5	1	-1.4%	-1.1	2	-15
COc1ccc2c(c1)[n+](=O)c(C(C)=O)c(C)n2[O-]	-0.7	-2	0.2%	2.3	-1	14
Cc1ccc(NS(=O)(=O)c2cc(C(=O)N3CCOCC3)ccc2C)cc1C	-0.9	-1	1.7%	-1.0	8	-2
Cc1c(NC(=O)OCCSc2nc(N(C)C)nc(N(C)C)n2)sc(=S)n1C	0.9	10	nt	-3.0	-4	-23
Cc1cccc(COc2coc(CN3CCN(C(=O)c4ccco4)CC3)cc2=O)c1	0.7	2	1.6%	-0.2	-3	-21
COc1ccc(/C=C2/SC(=S)N(CC(=O)O)C2=O)cc1OCc1ccc(Cl)cc1	0.3	-16	3.0%	-4.8	-19	-5
CN(CC(=O)Nc1ccccc1Br)C(=O)c1n[nH]c2ccccc12	0.2	-10	-0.1%	2.8	3	-15
O=C(CSc1ccc2nnc(-c3ccncc3)n2n1)Nc1ccc2c(c1)OCO2	-0.7	0	1.0%	-1.1	-16	1
Cc1ccc(S(=O)(=O)NCCC2=CCCCC2)cc1C(N)=O	-0.3	1	0.5%	-1.3	3	-15
CC(=O)C1(C)OC(N)=C(C#N)C(c2ccccc2)C1(C#N)C#N (stereo not drawn)	1.5	-5	9.7%[38.3 µM]	0.8	-3	7
Fc1ccc(-c2csc3[n+]2CCS3)cc1	0.2	-7	3.9%	-3.0	2	-4
Cc1ccc(SCc2cc(=O)[nH]c(N3CCN(Cc4ccc5c(c4)OCO5)CC3)n2)cc1	0.1	-2	2.8%	-2.0	1	-30
CC1(C)CN(c2ccc(C(=O)c3ccccc3)cc2)C1=O	-0.2	-2	0.5%	-3.5	4	-4
Cc1cc(C(=O)NCC(=O)Nc2ccc(F)c(F)c2)c(C)o1	0.9	-3	-1.1%	-2.9	-8	-10
CCN(CC)S(=O)(=O)c1ccc(N/N=C/c2ccc(OC)c(OC)c2OC)nc1	1.6	0	1.0%	-1.2	-9	-7
O=C(COC(=O)C1CC2CCCC(C1)C2=O)NC1CCCCC1 (stereo not drawn)	-0.7	nt	1.2%	-0.8	4	1
C[C@H](CO)N1C[C@H](C)[C@@H](CN(C)S(=O)(=O)c2cccs2)Oc2c(NS(=O)(=O)c3ccc(F)cc3)cccc2C1=O	1.1	-1	-0.4%	-0.7	2	-4

Entries of single compounds, looked up by structure:
CC(=O)C1(C)OC(N)=C(C#N)C(c2ccccc2)C1(C#N)C#N (stereo not drawn) as listed: TRPML1 ag: 1.5; CtBP-E1A blk: -5; PINK1 expr mod: 9.7%[38.3 µM]; D2 ag: 0.8; Six1-Eya2 blk: -3; D2 PAM: 7
CCN(CC)S(=O)(=O)c1ccc(N/N=C/c2ccc(OC)c(OC)c2OC)nc1 as listed: TRPML1 ag: 1.6; CtBP-E1A blk: 0; PINK1 expr mod: 1.0%; D2 ag: -1.2; Six1-Eya2 blk: -9; D2 PAM: -7

5 entries drawn at random from the list so far:
SMILES	TRPML1 ag	CtBP-E1A blk	PINK1 expr mod	D2 ag	Six1-Eya2 blk	D2 PAM
Fc1ccc(-c2csc3[n+]2CCS3)cc1	0.2	-7	3.9%	-3.0	2	-4
Cc1cc(C(=O)NCC(=O)Nc2ccc(F)c(F)c2)c(C)o1	0.9	-3	-1.1%	-2.9	-8	-10
O=C(COC(=O)C1CC2CCCC(C1)C2=O)NC1CCCCC1 (stereo not drawn)	-0.7	nt	1.2%	-0.8	4	1
Cc1ccc(S(=O)(=O)NCCC2=CCCCC2)cc1C(N)=O	-0.3	1	0.5%	-1.3	3	-15
Cc1ccc(SCc2cc(=O)[nH]c(N3CCN(Cc4ccc5c(c4)OCO5)CC3)n2)cc1	0.1	-2	2.8%	-2.0	1	-30

The list goes on.
SMILES	TRPML1 ag	CtBP-E1A blk	PINK1 expr mod	D2 ag	Six1-Eya2 blk	D2 PAM
CCOC(=O)C1=C(C)NC2=C(C(=O)CC(C)(C)C2)C1c1ccsc1 (stereo not drawn)	0.6	7	nt	-2.6	2	-18
CCOC(=O)N1CCN(C2CCCN(C(=O)c3cccc(Cl)c3)C2)CC1 (stereo not drawn)	-0.4	6	-0.1%	-0.3	-1	-33
Brc1ccc([C@H]2C=C[C@H]3CCCN4CC[C@H]2[C@@H]3[C@]42CO2)cc1	-0.3	-16	2.3%	nt	-16	nt
COc1cccc(C2(O)CCN(C(=O)C3CCC3)CC2)c1	-0.1	-7	-1.3%	-0.3	-6	-14
